Compound activity as filed in PubChem.
MT1-MMP act inh: MT1-MMP (human) activation inhibition; P50281; HT1080 RFP-PRO-GFP cells, GFP/RFP ratio fluorescence, overnight; percent of plate control window, DMSO zero; GFP/RFP ratio change, % at 20 µM; actives 0.061% (n = 360,000);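 active = GFP/RFP ratio change of at least 30% with cell ATP level not reduced by more than half and red fluorescence within 50% of control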; note: strong numbers were not always called active
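Read-out: GFP/RFP fluorescence ratio; Test system: RFP-PRO-GFP reporter HT1080 cells; Compound dosing: single-point 20 µM compound, 1% DMSO; Times: overnight compound exposure at 37 °C.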
PABP polyA inh: PABP-poly(A) binding inhibition; PABP-poly(A) RNA binding, fluorescence polarization; AID 2014; inhibition, % at 35 µM; actives 1% (n = 290,000); P11940;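 active = 50% or more with normal probe brightness, or confirmed in later tests; inconclusive = above 50% with abnormal brightness, or retests that disagree; inactive = below 50% or failed in later tests; about a fifth of its hits are not listed in these tables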;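 note: calls also rest on retests at 20 µM and on dose response follow-up; controls were probe without protein and protein plus probe with vehicle; some compounds called inactive have numbers as strong as hits; many hits fall short of the cut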
Target sequence (P11940 whole entry, looked up): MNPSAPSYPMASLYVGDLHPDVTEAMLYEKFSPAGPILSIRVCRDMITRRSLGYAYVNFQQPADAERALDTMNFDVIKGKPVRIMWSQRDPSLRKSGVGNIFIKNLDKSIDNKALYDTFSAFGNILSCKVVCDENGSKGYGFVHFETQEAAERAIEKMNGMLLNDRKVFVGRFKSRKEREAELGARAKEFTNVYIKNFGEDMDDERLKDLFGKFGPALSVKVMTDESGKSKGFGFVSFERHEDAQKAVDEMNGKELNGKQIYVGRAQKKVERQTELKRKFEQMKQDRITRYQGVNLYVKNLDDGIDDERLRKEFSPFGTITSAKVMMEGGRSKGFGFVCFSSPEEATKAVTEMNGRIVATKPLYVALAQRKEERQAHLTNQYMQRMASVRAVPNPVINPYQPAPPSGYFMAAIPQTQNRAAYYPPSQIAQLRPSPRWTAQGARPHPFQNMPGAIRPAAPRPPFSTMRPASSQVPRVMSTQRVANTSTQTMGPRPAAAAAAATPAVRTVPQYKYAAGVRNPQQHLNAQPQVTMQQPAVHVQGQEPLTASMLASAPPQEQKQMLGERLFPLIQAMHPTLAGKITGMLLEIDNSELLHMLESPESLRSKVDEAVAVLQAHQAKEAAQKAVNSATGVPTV
Yeast UUG start: modulators of start codon recognition fidelity in yeast. S. cerevisiae UUG-firefly luciferase reporter, luminescence/redox ratio. AID 602363. activity score, % at 18.7 µM. actives 0.13% (n = 350,000);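 active = replicate mean at a twofold rise or more, about +100% in these data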;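 note: firefly luciferase made from a UUG start codon reports start codon fidelity; reporter light over untreated wells divided by growth signal over untreated wells; some hits fall short of that in this replicate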
Rce1 inh: inhibitors of yeast Ras-converting enzyme. Q03530. yeast membranes, quenched prenylated peptide cleavage fluorescence. calls only. actives 0.27% (n = 290,000);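 active = fall in fluorescence gain of 50% or more versus controls, with final raw signal at or below 3038400; inconclusive = same 50% fall but final raw signal above 3038400; inactive = fall in fluorescence gain under 50%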;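 note: plate controls were neutral control wells for no effect and wells lacking membranes for full effect; tested at 10 µM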
Target sequence (Q03530 whole entry, looked up): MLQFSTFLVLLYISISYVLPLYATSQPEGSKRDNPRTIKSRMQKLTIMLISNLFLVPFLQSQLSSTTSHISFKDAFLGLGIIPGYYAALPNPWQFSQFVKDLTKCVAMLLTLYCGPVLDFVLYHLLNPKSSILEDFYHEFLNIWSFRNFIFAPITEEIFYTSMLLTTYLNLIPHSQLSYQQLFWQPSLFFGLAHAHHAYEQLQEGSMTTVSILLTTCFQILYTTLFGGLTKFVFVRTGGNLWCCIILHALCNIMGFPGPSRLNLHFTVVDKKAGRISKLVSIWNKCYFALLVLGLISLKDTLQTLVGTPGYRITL
CSC inhib: blocks cancer stem cells. cancer stem cell-like cells viability, luminescence. inhibition, % at 7.5 µM. actives 1.1% (n = 300,000). AID 2717;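 active = mean at 75% or more and at least half the replicates too; inconclusive = mean and replicates disagree; tested in HMLE shEcad cells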;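 note: 0% = median of negative and 100% = median of positive control wells; the first replicate is given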
eIF4H inh: inhibitors of RNA binding by human eIF4H; eIF4H fluorescence polarization binding assay; Q15056; actives 0.94% (n = 290,000); AID 2012; inhibition, % at 35 µM;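 active = 50% or more with normal probe brightness, or confirmed in later tests; inconclusive = above 50% with abnormal brightness, or retests that disagree; inactive = below 50% or failed in later tests; about a fifth of its hits are not listed in these tables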;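 note: calls also rest on retests at 20 µM and on dose response follow-up; 0% = protein and probe with vehicle and 100% = probe without protein; strong numbers were not always called active; many hits fall short of the cut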
HIV Env fusion: blocks HIV Env-driven cell-cell fusion | AID 651610 | actives 1.1% (n = 360,000) | HeLa-JRFL Env/CEM21 cell fusion, luciferase | inhibition, % at 12.3 µM;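 active = mean replicate inhibition score of at least 50 and every replicate individually at or above 50; inconclusive = only one of the two criteria met; inactive = mean below 50 and not all replicates reaching 50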;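 note: 0% = plate neutral controls and 100% = maraviroc near 300 nM; one replicate is shown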
eIF4H inh retest: also measured in eIF4H inh; calls as there; inhibition, %; compound at 20 µM; confirmation average;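 mean of two retest wells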
PABP polyA inh retest: recorded beside PABP polyA inh, whose call it bears; inhibition, %; compound at 20 µM; confirmation repeats;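 mean of two retest wells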
MT1-MMP act inh RFP: further read-out of MT1-MMP act inh, marked with its call; RFP signal change, %; measured here: RFP expression control read;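 0 = vehicle wells; hits needed this value within 50% of zero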
* hit, by the source's call; i = inactive; ? = inconclusive; . = not tested or not shown; & = joins results of further samples; [ ] = another dose, or the depositor's remark.

SMILES | MT1-MMP act inh | MT1-MMP act inh RFP | PABP polyA inh | Yeast UUG start | Rce1 inh | CSC inhib | eIF4H inh | HIV Env fusion | others
COc1ccc(/C=C2\C(=O)NCC(=O)N2C)cc1 | -7 | 2 | . | -18 | i | . | . | 1
COC(=O)c1cc(C(=O)OC)cc(N2C(=O)CC(N3CCN(c4ccccc4)CC3)C2=O)c1 (stereo unspecified) | -2 | 1 | 15 | . | i | . | 0 | .
O=C(O)c1ccccc1C(=O)NCCc1c(C(=O)O)[nH]c2ccc(F)cc12 | -2 | 1 | -8 | 1 | i | -10 | -1 | 12
CCCc1cc(C(=O)NC(C)C2CCCO2)cs1 (stereo unspecified) | -2 | 0 | -6 | -15 | i | 10 | -1 | 14
CCc1nc2c(OCC3CCCCC3)cccn2c1N(C)C(=O)c1ccc(C)cc1 | 1 | -10 | . | -20 | . | . | . | 20
O=C(NCc1ccco1)C(c1ccccc1F)N(CC1CCCO1)C(=O)Cn1nnc2ccccc21 (stereo unspecified) | 0 | 3 | -3 | -5 | i | -3 | 0 | .
COC1CCN(C(=O)C2CCC(=O)N(CCc3cccc(F)c3)C2)CC1 (stereo unspecified) | 1 | 2 | 2 | -10 | . | -15 | 0 | -7
CC(=O)c1ccc(N(C(=O)Cc2c[nH]c3ccccc23)C(C(=O)NC2CCCCC2)c2cccs2)cc1 (stereo unspecified) | -12 | 8 | -3 | -16 | i | 12 | -9 | -52
Cc1ccccc1N(CC(=O)NC1CCCCC1)C(=O)CCC(=O)Nc1nccs1 | -2 | 1 | -1 | -4 | i | -12 | 3 | -3
C=CCOc1ccccc1CNCCc1ccc(S(N)(=O)=O)cc1 | 1 | 8 | -6 | . | i | -12 | -1 | 10
CC(C)(C)OC(=O)C[C@H]1C/C=C\C[C@@H](CC(=O)NCCO)C(=O)NC[C@H](c2ccccc2)OC1=O | 2 | 7 | . | -6 | . | -24 | . | 17
CC1=CC2=NC(=O)CC(C)(C(=O)N(CC(=O)NC3CCCC3)c3ccccc3F)N2C=C1 (stereo unspecified) | 0 | 2 | -7 | -6 | ? | -26 | -3 | -6
Cn1cc(CNC(=O)C2CCC(=O)N(Cc3ccc(Cl)cc3)C2)cn1 (stereo unspecified) | 1 | 4 | 4 | -12 | i | -9 | -1 | -8
O=C(CN1C(=O)/C(=C2\SC(=S)N(CCS(=O)(=O)O)C2=O)c2ccccc21)Nc1cccc(Br)c1 | 0 | 0 | 53* | 2 | i | -4 | 93* | -8
COc1ccc(NC(=O)Cn2cnc3sc(C)c(S(=O)(=O)N4CCOCC4)c3c2=O)cc1Cl | 4 | 2 | 2 | -3 | i | -10 | 1 | 18
CCOc1ccc(NS(=O)(=O)c2cc(NC(=O)c3ccc(C)cc3)ccc2Cl)cc1 | -19 | -24 | -6 | . | i | 60 | -4 | -48
O=C(C1CC(c2cccc(Br)c2)=NO1)N1CCc2ccccc2C1 (stereo unspecified) | 9 | 9 | -4 | -10 | i | -10 | 53* | -12 | eIF4H inh retest=63*;PABP polyA inh retest=4
CC1(C)CNC(=O)c2sc(NC(=O)c3ccccc3Cl)nc2C1 | 1 | -3 | -1 | 4 | i | -16 | -2 | -6
CCOc1ccc(OCCCCN(C)C)cc1 | 3 | 0 | 28 | 7 | i | 15 | -5 | .
Cc1ccc(C(=O)c2cc([N+](=O)[O-])ccc2N2CCN(C)CC2)cc1 | -12 | -16 | 4 | -7 | i | 61 | -8 | .

Among those listed so far, 2 have bromine:
SMILES | MT1-MMP act inh | MT1-MMP act inh RFP | PABP polyA inh | Yeast UUG start | Rce1 inh | CSC inhib | eIF4H inh | HIV Env fusion | others
O=C(CN1C(=O)/C(=C2\SC(=S)N(CCS(=O)(=O)O)C2=O)c2ccccc21)Nc1cccc(Br)c1 | 0 | 0 | 53* | 2 | i | -4 | 93* | -8
O=C(C1CC(c2cccc(Br)c2)=NO1)N1CCc2ccccc2C1 (stereo unspecified) | 9 | 9 | -4 | -10 | i | -10 | 53* | -12 | eIF4H inh retest=63*;PABP polyA inh retest=4

Following part
SMILES | MT1-MMP act inh | MT1-MMP act inh RFP | PABP polyA inh | Yeast UUG start | Rce1 inh | CSC inhib | eIF4H inh | HIV Env fusion | others
Cc1ccc2c(c1)C(c1ccncc1)=NNC(c1cccnc1)=N2 | -2 | -1 | 1 | -10 | i | 10 | 8 | 5
N#C/C(=C\C=C\c1ccccc1)C(=O)NCc1ccco1 | -2 | -7 | 8 | 0 | i | 20 | -3 | -51
O=C(NCCc1ccccc1)C1CCCN1C(=O)Nc1cccc(Cl)c1 (stereo unspecified) | -3 | -5 | 5 | -18 | i | -9 | 0 | 7
CCC(C)(C)NC(=O)CN(C(=O)C(=O)Nc1ccc2c(c1)OCCO2)N1CCOCC1 | 0 | 2 | -7 | -4 | i | . | -10 | 8
O=C(CN(Cc1ccco1)C(=O)c1cc(=O)[nH]c2ccccc12)Nc1ccccc1C(F)(F)F | -10 | 2 | 5 | -16 | i | -9 | -3 | -6
CC1Cc2ccccc2N1CC(=O)NC(=O)NCc1ccco1 (stereo unspecified) | 16 | 20 | 47 | -8 | i | 11 | 37 | -42
Cc1[nH]cnc1CSCc1ccc(Cl)cc1 | -2 | -2 | 104 | -23 | i | 8 | 0 | -9 | eIF4H inh retest=15;PABP polyA inh retest=24
COc1ccc(CNC(=O)c2n[nH]c3ccccc23)cc1OC | 2 | 6 | 6 | -7 | i | -4 | -1 | -162
CC(NC(=O)C(C)N1CCN(S(=O)(=O)c2ccccc2)CC1)c1ccccc1 (stereo unspecified) | 1 | 2 | . | -6 | . | -13 | . | .
CC(=O)c1ccc(Oc2cc(-c3ccccc3)nc(-c3ccccc3)n2)cc1 | 1 | 2 | 7 | . | i | 20 | 1 | -2
CC/C=C(/NC(C)=O)c1ccccc1 | 6 | 3 | . | -8 | . | 3 | . | 1
Cc1ccc(C(=O)OCc2cc(=O)n3ccsc3n2)s1 | -2 | 7 | . | -6 | . | -6 | . | -28
COCC(=O)N1CCC(Oc2ccc(C(=O)N(C)Cc3nccs3)cc2)CC1 | 2 | -3 | -3 | -21 | i | 0 | -11 | -17
COCCN1C(=O)C(O)=C(C(C)=O)C1c1ccc(OC)c(OC)c1 (stereo unspecified) | 0 | -4 | 49 | -1 | i | -13 | -5 | .
O=C(CCC(=O)NC1CCCCC1)NCc1ccc(F)cc1 | -1 | 4 | 5 | -6 | i | -17 | 3 | 13
CCOC(=O)C(=O)Nc1nnc(SCc2ccc(F)cc2)s1 | -1 | 0 | 6 | -6 | i | -5 | 3 | 3
CON(c1nc(N(C)C)nc(N(C)C)n1)S(=O)(=O)c1ccccc1Cl | 1 | 1 | -5 | -7 | i | 6 | -9 | .
CSc1ncccc1C(=O)Nc1cccc(C)n1 | -3 | 2 | -3 | 14 | i | 3 | -1 | -27
Cc1cc(C)cc(OCC(=O)Nc2ccc(N3CCCC3)cc2)c1 | 1 | -7 | 39 | 2 | i | -8 | 38 | .
O=C(NCC1OCCc2ccccc21)C1COc2ccccc2O1 (stereo unspecified) | -1 | 0 | -3 | -2 | i | -17 | 4 | .
CCC1=Nc2cc(C(=O)NCCCN3CCOCC3)ccc2Sc2ccccc21 | 4 | 3 | 2 | -13 | i | 2 | 44 | 2
O=C(c1ccc(F)cc1)C1CCN(C(=S)Nc2ccccc2Cl)CC1 | 2 | -7 | 1 | . | i | -13 | -3 | -2
Cc1ccc(C(C)C)c(OCc2nn(CC(=O)c3ccc(OC(F)F)cc3)c3[n+]2CCCCC3)c1 | -127 | -28 | -2 | -1 | i | 94* | -1 | .
CS(=O)(=O)N(CC(=O)NCCSCc1c(F)cccc1Cl)c1cccc([N+](=O)[O-])c1 | 3 | 0 | 2 | . | i | -5 | -3 | 15
CC(C)CC1NC(=O)N(CC(=O)N(C)C2CCCCC2)C1=O (stereo unspecified) | -1 | 0 | . | 9 | . | -12 | . | .
CN(Cc1cn(C)nc1-c1ccc(Oc2ccccc2)cc1)CC1COCCO1 (stereo unspecified) | 1 | 2 | 9 | . | i | 36 | 16 | 21
N#Cc1ccc(Oc2nc(C#N)cc(-c3ccccc3)n2)cc1 | 3 | -9 | 7 | . | i | 6 | -7 | -7
COc1ccc(NC(=O)Nc2ccc3c(c2)CC(=O)N([C@H](C)CO)C[C@H](C)[C@H](CN(C)Cc2ccc(C(=O)O)cc2)O3)cc1 | 2 | 8 | . | 3&26 | . | -5 | . | -4[16.7 µM]
O=C1OCC(CO)(CO)N=C1NNc1ccccc1Cl | -2 | -2 | -11 | -18 | i | 1 | -3 | .
O=C(NCc1ccc2c(c1)OCO2)C1CCN(S(=O)(=O)c2cccc3nsnc23)CC1 | -5 | 1 | 6 | -13 | i | -18 | 10 | -25
CCOC(=O)c1ccc(Cl)c(NC(=O)c2cccnc2)c1 | . | . | 8 | . | i | -9 | 3 | .
CC1CCCCC12NC(=O)N(CC(=O)N1CCN(S(=O)(=O)c3ccc(Cl)s3)CC1)C2=O (stereo unspecified) | -8 | 3 | . | 0 | . | . | . | 5
CN(C)c1ccc(C(=S)N2CCCCC2)cc1Br | -5 | -3 | -6 | . | i | -3 | -9 | 10
COC(=O)c1ccc(NC(=S)Nc2ccc3ccccc3c2)cc1 | 2 | 2 | -3 | -29 | i | -8 | -13 | .
CC(C)(C)NC(=O)C(c1ccc(-c2ccccc2)cc1)N(C[C@H]1CC[C@@H]([C@@H]2CC[C@H](CO)O2)O1)C(=O)c1ccc(C(C)(C)C)cc1 (stereo partly specified) | -20 | -19 | . | -2 | . | . | . | 21
O=S(=O)(c1ccc(C2=CSC3=NCCN23)cc1)N1CCOCC1 | 1 | 0 | -8 | -38 | i | 8 | -8 | .
NC(=NCc1ccccc1)c1cccc([N+](=O)[O-])c1 | -4 | -2 | 3 | -10 | i | 2 | 3 | -14
COCCN(C(=O)c1ccc2ccccc2c1)c1c(N)n(Cc2ccccc2)c(=O)[nH]c1=O | -4 | 3 | -8 | -6 | i | . | -3 | -2
NC(=O)COC(=O)c1cccc(S(=O)(=O)N2CCN(c3ccc(F)cc3)CC2)c1 | 2 | 1 | -1 | -4 | i | -7 | 2 | -11
COc1ccccc1C(=O)NCCC(=O)NCc1cccs1 | -3 | 3 | . | -13 | i | -9 | . | 6
COc1ccc(C(=O)OCC(=O)NC(=O)Nc2ccccc2F)c(OC)c1 | 4 | 1 | . | -3 | . | 2 | . | 6
Cc1ccccc1S(=O)(=O)NCc1cccnc1 | 2 | 2 | -7 | -24 | . | 2 | 3 | -7
Cc1[nH]c(=O)[nH]c(=O)c1S(=O)(=O)Nc1ccc(F)cc1F | 5 | 6 | 8 | -6 | i | -11 | -6 | 9
Cc1sc2nc(N)sc2c1C | 1 | 1 | 8 | -15 | . | -9 | 3 | .
COc1ccc(CCCNC(=O)C2(C)Cc3c(-c4ccc(NC(C)=O)cc4)ccnc3O2)cc1 (stereo unspecified) | -4 | -4 | . | -5 | . | . | . | -16
O=C(NC1CCS(=O)(=O)C1)c1ccccc1C(=O)c1ccccc1 (stereo unspecified) | -2 | 3 | -8 | 14 | i | -9 | 3 | 3
COC(=O)CN(CCc1ccccc1)S(=O)(=O)c1ccc(OC)c(OC)c1 | 10 | -1 | 5 | 38 | i | -3 | -2 | -18
COCCn1c(SCC(=O)N2CC(C)OC(C)C2)nc2c([nH]c3ccccc32)c1=O (stereo unspecified) | 5 | 1 | -2 | 10 | i | -4 | 6 | 8

Some of the compounds tested. The share of hits here may be higher or lower than overall.
